Screens (PubChem)
Vaccinia Venus: inhibitors of vaccinia virus (Venus reporter); Potency, µM (highest dose often 36.5 µM), inactives show at the top dose activity change, negative = inhibition, hits mostly inhibitors; Vaccinia virus Venus reporter expression, fluorescence; AID 720580; actives 0.46% (n = 330,000); active means well fitted inhibition curve with a large enough effect; inconclusive means small, poorly fitted or top-dose-only effect; inactive means no such curve, though single readings can be large or run the other way; tested in A549 cells; also: nearly all actives have a fitted effect of over 30% in size; inactives centre near -10
Vaccinia mCherry: vaccinia inhibition (mCherry reporter); Vaccinia virus mCherry reporter infection, fluorescence; about a quarter of the inactives have no number; Potency, µM (highest dose often 36.5 µM), without a hit: top-dose activity change, negative = inhibition, usual class: inhibitors; actives 0.63% (n = 310,000); AID 720579; active = well fitted inhibition curve with a large enough effect; inconclusive = small, poorly fitted or top-dose-only effect; inactive = no such curve, though single readings can be large or run the other way; tested in A549 cells; also: nearly all actives have a fitted effect of over 35% in size; inactives centre near -10
Starred values were filed as active, the others as inactive; i = inactive; ? = inconclusive; nt = no result given; [ ] = dose if it differs, or a comment. % is scaled to controls: 0 for no effect and ±100 for the full control effect; potency is read from the fitted curve at half-maximal effect.

Values run as follows: Vaccinia Venus	Vaccinia mCherry
> COCC(=O)Nc1ccc2c(c1)[C@@H]1C[C@H](CC(=O)OC)O[C@@H](CO)[C@@H]1O2
 : -2%	i
> C=CCNC(=O)c1onc(CSc2ccc(OC)cc2)c1C(=O)O
 : 0%	i
> CC(=O)Nc1c(C)ccc2nsnc12
 : 0%	i
> NC(C(=O)O)c1ccc(P(=O)(O)O)cc1 (centres undefined)
 : -9%	i
> COc1cc2nc(SCC(=O)Nc3ccccc3F)n3nc(-c4ccccc4)nc3c2cc1OC
 : -2%	i
> COc1ccccc1C(=O)NCCC(=O)Nc1cccnc1
 : 0%	i
> COC(=O)Cn1nc(-c2ccccc2)c2ccccc2c1=O
 : -4%	-19%
> Nc1nc2ccc(Cl)cc2cc1C(=O)NCCc1c[nH]c2ccccc12
 : -17%	-22%
> Cc1ccc2[nH]c3nc(N/N=C/c4cccc(O)c4)nnc3c2c1
 : -3%	-12%
> Cc1cc2occ(CC(=O)O)c2cc1C
 : 0%	nt
> Cc1cccc(C(=O)N[C@H](C(=O)Nc2nnc(C3CC3)s2)C(C)C)c1
 : -14%	-14%
> CCOC(CNC(=O)c1nnc(Cc2cc(OC)c(OC)c(OC)c2)o1)OCC
 : 0%	i
> COc1cccc(-c2cnc3c(NC=O)cc(-c4ccc(N5CCN(C)CC5)cc4)cn23)c1
 : -22%	?
> O=C(c1ccc(F)cc1)N1CCC(C(=O)N2CCN(S(=O)(=O)c3cccc([N+](=O)[O-])c3)CC2)CC1
 : -12%	-10%
> CCSC1=NC(C)(C)C=C(/C=C/c2ccc(Cl)cc2Cl)N1
 : -30%	nt
> CCOc1cc(CNc2ccc3cn[nH]c3c2)ccc1OC
 : ?	?
> Cc1cccc(-c2nc(S(=O)(=O)c3ccccc3)c(N3CCOCC3)o2)c1
 : -5%	-17%
> CN(C)/N=C/c1ccc(OS(=O)(=O)c2ccccc2)cc1
 : -1%	3%
> Cn1c(C(=O)Nc2cccc(Cl)c2)cc2c(=O)n(C)c3ccccc3c21
 : -13%	-3%
> Cc1cccc(NC(=O)Nc2ccc(Cl)c(Cl)c2)n1
 : -10%	-12%
> CC(=O)c1c(C)c[nH]c1C
 : -11%	-12%
> CCc1c(C(=O)N/N=C/c2sccc2C)nnn1-c1nonc1N
 : -1%	-7%
> C[C@@H]1CCCCO[C@@H](CN(C)S(=O)(=O)c2cn(C)cn2)[C@@H](C)CN([C@H](C)CO)C(=O)c2cc(NC(=O)Nc3ccc(C(F)(F)F)cc3)ccc2O1
 : -24%	-2%
> O=C(N[C@@H](CO)C(=O)NCc1ccccc1)c1ccc(C(F)(F)F)cc1
 : -13%	-24%
> Cc1cc(/C=C2\SC(N)=NC2=O)c(C)n1-c1ccccc1
 : -26%	nt
> CCN1CCN(CC(=O)c2cc(OC)c(OC)c(OC)c2)CC1
 : 6%	i
> CNc1oc(-c2ccco2)nc1C#N
 : -16%	nt
> N#Cc1ccc(CSc2nnc(-c3c[nH]c4ccccc34)n2-c2ccccc2)cc1
 : ?	?
> CCCc1nc2cccnc2n1C1CCN(C(=O)Cn2nccc2C)CC1
 : -9%	-10%
> CC(C)(C)C(=O)N1CCN(c2ccc(NC(=O)c3ccc4c(c3)OCCO4)cc2)CC1
 : -14%	-22%
> O=C1CC(c2cc3c(cc2Br)OCO3)C2=C(CCCC2=O)N1 (centres undefined)
 : -8%	i
> CC(C)C[C@H]1CN(CCCC[C@@H]2CNC(=O)C(=O)N2Cc2ccccc2)C(=O)C(=O)N1CCc1ccccc1
 : 2%	2%
> c1ccc(CNc2nc(CN3CCOCC3)nc3scc(-c4ccccc4)c23)cc1
 : 7%	-13%
> Cn1c(NC(=O)c2cccc(Cn3cc(Cl)cn3)c2)nc2ccccc21
 : -22%	?
> CC1CCc2c(sc3nc(C(C)(C)C)nc(N4CCN(C(=O)CCl)CC4)c23)C1 (centres undefined)
 : ?	-8%
> CC[C@H](C)[C@H](NC(N)=O)C(=O)NCCc1ccc(Cl)cc1
 : -1%	-16%
> O=C(Nc1cccc(C(F)(F)F)c1)C1CCCN(S(=O)(=O)c2cccc3nsnc23)C1 (centres undefined)
 : -23%	-22%
> COC(=O)C(Cc1csc2ccc(Cl)cc12)NC(=O)c1ccc(Cl)cc1 (centres undefined)
 : 0%	-6%
> CC(C(=O)Nc1ccccc1-c1ccccc1)N1CCCCC1 (centres undefined)
 : -17%	nt
> Cc1ccc(Cn2c(C(=O)Nc3ccc(Cl)cc3)cc3sccc32)cc1
 : -4%	-6%

Structures listed so far with a tert-butyl group:
Values run as follows: Vaccinia Venus	Vaccinia mCherry
> CC(C)(C)C(=O)N1CCN(c2ccc(NC(=O)c3ccc4c(c3)OCCO4)cc2)CC1
 : -14%	-22%
> CC1CCc2c(sc3nc(C(C)(C)C)nc(N4CCN(C(=O)CCl)CC4)c23)C1 (centres undefined)
 : ?	-8%

3 entries already listed, arranged by count of non-hydrogen atoms, largest number first:
Values run as follows: Vaccinia Venus	Vaccinia mCherry
> C[C@@H]1CCCCO[C@@H](CN(C)S(=O)(=O)c2cn(C)cn2)[C@@H](C)CN([C@H](C)CO)C(=O)c2cc(NC(=O)Nc3ccc(C(F)(F)F)cc3)ccc2O1
 : -24%	-2%
> CC[C@H](C)[C@H](NC(N)=O)C(=O)NCCc1ccc(Cl)cc1
 : -1%	-16%
> Cc1cc2occ(CC(=O)O)c2cc1C
 : 0%	nt

Further records
Values run as follows: Vaccinia Venus	Vaccinia mCherry
> CCCCN(C)CC(O)Cn1cc(/C=C/C(=O)c2ccc(OC)c(OC)c2)c2ccccc21 (centres undefined)
 : -20%	?
> CC(C)CN(CC(C)C)CC(O)CN(c1ccccc1)S(=O)(=O)c1ccccc1[N+](=O)[O-] (centres undefined)
 : ?	?
> CCOC(=O)C1=C(CN2CCSCC2)NC(=O)NC1c1cc(C)ccc1C (centres undefined)
 : -11%	-24%
> Cc1cc(-n2c(C)nc3ccccc3c2=O)ccc1NC(=O)c1ccc(C)c([N+](=O)[O-])c1
 : -17%	-6%
> CNC(=O)c1ccsc1NC(=O)CCS(=O)(=O)c1ccc(C)cc1
 : -18%	?
> CC(C)=CC(=O)Nc1nnc(-c2ccc(F)cc2)s1
 : -4%	-6%
> COc1ccc(N=C(N)SCc2ccccn2)cc1
 : 11µM*	11µM*
> O=C1Nc2ccccc2-n2nnnc2C1N1CCN(CCN2CCOCC2)CC1 (centres undefined)
 : -10%	-7%
> C/C(=N\NC(=O)C1COc2ccccc2O1)c1cccs1 (centres undefined)
 : -11%	-14%
> COc1ccc(CNC(=O)CC(c2ccc(OC)cc2)N2Cc3ccccc3C2=O)cc1 (centres undefined)
 : -14%	-7%
> O=C(Nc1ccc(Cl)c([N+](=O)[O-])c1)c1cnccn1
 : -18%	-30%
> Cc1ccc(S(=O)(=O)/N=C(/Nc2cccc3ccccc23)c2ccc(F)cc2)cc1
 : -15%	-24%
> O=Cc1c(N2CCCCC2)nc2ccccn2c1=O
 : -4%	-2%
> C[C@@H]1/C(=N/O)CC2C[C@@H]1C2(C)C
 : -12%	-17%
> COc1cc(OC)c(C(=O)NCCCn2ccnc2)cc1OC
 : 1%	2%
> COc1ccc(NCc2cc3cc4c(cc3n(CC(=O)Nc3cccc(F)c3)c2=O)OCO4)cc1
 : -1%	-18%
> CCc1nnc(SCC(=O)Nc2ccc(F)cc2F)c2cc3sc(C)cc3n12
 : -5%	-2%
> CN(Cc1cc(=O)n2ccsc2n1)c1ccccc1
 : -7%	-6%
> CC1(C)C(=O)OC(C(=O)c2ccccc2)C(C)(C)C1=O (centres undefined)
 : -10%	-13%
> C/C(=N\NC(=O)C1CC1(c1ccccc1)c1ccccc1)c1cccc([N+](=O)[O-])c1 (centres undefined)
 : -12%	-5%
> CCN1C(=O)CS/C1=N\S(=O)(=O)c1ccc(C)cc1
 : -6%	-2%
> CC(C)C(=O)NCCn1ccc2ccccc21
 : ?	nt
> C=CCn1c(N)c(C(=O)OCCC)c2nc3ccccc3nc21
 : -29%	-13%[1.46 µM]
> O=C(C1CCN(S(=O)(=O)N2CCOCC2)CC1)N1CCN(c2ccccc2)CC1
 : -11%	nt
> COCCNC(=O)CSc1nnc2c(Cl)cc(Cl)cn12
 : -10%	nt
> Cc1cc(/C=C2\NC(=O)NC2=O)c(C)n1-c1ccc(N2CCOCC2)cc1
 : 5%	-22%
> Cc1ccc(C(=O)NNC(=O)C2CCN(S(=O)(=O)c3ccc(Cl)cc3)CC2)cc1
 : -12%	i
> CC(=O)c1ccc(NC(=S)N2CCC(O)CC2)cc1
 : -9%	-11%
> COC(=O)c1ccc(CSc2nnc(CNC(=O)c3cccs3)o2)o1
 : -1%	-12%
> Cc1ccc(C)c(NNC(=O)C(=O)NNc2cc(C)ccc2C)c1
 : -7%	-7%
> Oc1cccc(/C=N\Nc2nncc(-c3ccccc3)n2)c1
 : -13%	-11%
> O=c1[nH]c2ccccc2n1C1CCN(C(CCc2ccccc2)c2nnnn2C2CCCCC2)CC1 (centres undefined)
 : ?	?
> Cc1ccc2c(c1)N(CCC(=O)NC1CCCCC1)C(=O)CO2
 : -18%	0%
> CCOC(=O)c1cccc(COC(=O)c2cccc(-c3nnc(-c4ccccc4)o3)c2)c1
 : -7%	-12%
> COc1ccc(OC)c(C2=NS(=O)(=O)N(C)C(C(=O)Nc3ccc(C(C)=O)cc3)=C2)c1
 : -3%[7.34 µM]	-12%[7.34 µM]
> CC(/C=C/c1ccccc1)=N\NC(=O)CNC(=O)c1ccccc1Cl
 : -17%	i
> COCC(C)NC(=O)NC(=O)c1ccc(Cl)cc1 (centres undefined)
 : -7%	-14%
> CC1(C)CC(=O)C=C(Nc2ccccc2NC(=O)c2cnccn2)C1
 : 8%	3%
> CN1CCN(CCCNC(=O)Cn2nc(-c3ccccc3)ccc2=O)CC1
 : -1%	i
> COc1ccccc1CNC(=O)CCC(=O)N1CCOc2ccc(C)cc21
 : -8%	-11%
> COc1ccccc1NC(C)C(=O)c1c[nH]c2ccccc12 (centres undefined)
 : -10%	i
> C=C(C)Cn1c(SCC#N)nc2ccccc2c1=O
 : -10%	nt
> COc1ccc(CCc2nnc(CCC(=O)NCC3CCCO3)o2)cc1 (centres undefined)
 : -12%	-11%
> CC(C)C[C@@H](CN(N=O)[C@@H](Cc1ccccc1)CN(C)N=O)N(CCc1ccccc1)N=O
 : -5%	4%
> COc1ccc(C2=NS(=O)(=O)N(C)C(C(=O)N3CCCCC3)=C2)cc1
 : -19%	0%
> CCN(CCCNC(=O)CCn1c(=O)[nH]c2ccsc2c1=O)c1ccccc1
 : -11%	-19%
> CCCCOc1ccc(N(CC(=O)NCc2ccco2)C(=O)CCC(=O)Nc2nccs2)cc1
 : -19%	-22%
> Cc1ccc(S(=O)(=O)N(C)c2ccc(C(=O)NCc3cccnc3)cc2)cc1
 : -9%	i
> COc1ccc(CNC(=O)c2cc(C)nc3c2c(C)nn3-c2cccc(Cl)c2C)cc1
 : ?	-20%
> Cc1cccc(NC(=O)c2cccc(S(=O)(=O)N(C)c3ccccc3)c2)n1
 : -15%	37%[activator]
> CSc1nc(N)nc(SCC(=O)c2ccc(C)cc2)c1C#N
 : -35%	nt
> CC(Oc1cccc2c1OC(C)(C)C2)C(=O)O (centres undefined)
 : 0%	nt
> CCN(CC)c1ncnc2c1ncn2[C@H]1CN(Cc2ccc(-c3ccccc3)cc2)C[C@@H](CO)O1
 : -23%	-21%
> NC(=O)CC(NC(=O)Cc1ccc(Br)cc1)c1ccc(NCCN2CCOCC2)c([N+](=O)[O-])c1 (centres undefined)
 : 0%	i
> C/C(=N\Nc1ccc(F)cc1)c1ccncc1
 : -5%	-6%
> CSc1ccccc1NC(=O)COC(=O)CSc1ccc(C)cc1
 : -17%	i
> COC(=O)C1=C(c2ccccc2OCc2ccccc2)C[C@@H]2CC[C@H]1N2C(=O)NCc1ccc(Cl)cc1
 : ?	i
> CC(C)Cn1c(O)c(N=NC(=O)c2cccc(S(=O)(=O)N3CCCCC3)c2)c2ccccc21
 : -21%	-9%
> CCOc1ccccc1CN1CCN(Cc2cc3ccccc3[nH]2)CC1CCO (centres undefined)
 : -15%	-3%
> Cc1sc2c(c1C)c(=O)n(-c1ccc(F)cc1)c(=O)n2CC(=O)NCc1ccco1
 : -5%	-12%

Later entries
Values run as follows: Vaccinia Venus	Vaccinia mCherry
> N#CC1=C(N)N(c2ccccc2)C(c2ccccc2)C1(C#N)C#N (centres undefined)
 : -18%	i
> CCCNC(=O)NC1CCCCCCC1
 : -1%	i
> CCOC(=O)c1cnn(-c2ccccn2)c1N
 : -14%	nt
> Cc1ccc2c(c1)c1c(c(=O)n(-c3ccccc3)c(=O)n1CC(=O)c1ccc(F)cc1)n2C
 : -20%	-12%
> CCCCN(C=O)c1c(CC)nc2ccc(C(=O)N(CC)CCN(C)C)cn12
 : 4%	8%
> CCc1nc2ccccc2c(C(=O)OCC(=O)Nc2cccc(S(=O)(=O)NC3=NCCCCC3)c2)c1C
 : ?	?
> CCc1ccc(N/C(N)=N/c2nc(CSc3ccccn3)cc(=O)[nH]2)cc1
 : 1%	i
> COc1cccc(Cc2nc3ccccc3nc2SCC(=O)Nc2ccccc2F)c1
 : -20%	i
> COc1ccc(C2C(=O)N(C3CCC(C)CC3)CC(=O)N2C2CCCC2)cc1OC (centres undefined)
 : -4%	-8%
> Cc1ccc(NC2=C(CC(=O)O)C(c3ccc(F)cc3)N(c3ccc(C)cc3)C2=O)cc1 (centres undefined)
 : -9%	-9%
> Cc1cccc2nc(-c3ccc(Cl)s3)c(Nc3ccc4c(c3)OCCO4)n12
 : -8%	-10%
> Cc1nc(-c2ccccc2)sc1C(=O)Nc1ccc(S(N)(=O)=O)cc1
 : -9%	-7%
> COc1ccc(NC(=O)OC(C)C)cc1
 : -14%	i
> Cc1cc(N/C=C/C(=O)c2cccc3ccccc23)no1
 : -10%	i
